Source: PubChem BioAssay (Fisher Drug Discovery Resource Center)
NPYLR7 agonist – activates Aedes aegypti NPYLR7 receptor | HEK293T NPYLR7/Galpha15, GCaMP6s calcium fluorescence | activation, % at 10 µM | 270,000 compounds, 0.15% hits | AID 1259423; in the data active = activation above about 40%;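 note: 0% = vehicle and 100% = reference agonist at the receptor; some compounds past the cut are filed as inactive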
NPYLR7 agonist max-min – further read-out of NPYLR7 agonist, marked with its call; activation, %; measured here: Max-Min RFU normalised activation; some inactives read as strong as hits;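 span of the calcium signal over five minutes; 0% = vehicle and 100% = native peptide agonist; compound fluorescence can raise it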
* marks the source's active call; other numbers are inactive results; & = joins results of further samples.

[1] CCC(CC)C(=O)Oc1cc(C)[nH]c(=O)c1[N+](=O)[O-]
[2] CC1CCCN(C(=O)C2CCN(C(=O)Nc3nnc(C(C)C)s3)CC2)C1 (stereo not given)
[3] COc1ccc(Cc2nnc(SCC(=O)Nc3cc(C)cc(C)c3)[nH]c2=O)cc1
[4] CCOC(=O)C1(Cc2ccccc2)CCCN(Cc2ccc(C#CC(C)(C)O)s2)C1 (stereo not given)
[5] CCOc1ccc(C(=O)Nc2ccc(-c3nc4ccccc4o3)cc2)cc1Cl
[6] CC(=O)c1ccc(NC(=O)c2ccc(N3C(=O)C4C5C=CC(C5)C4C3=O)cc2)cc1 (stereo not given)
[7] O=C(O)c1cc(-c2ccccc2Cl)nn1-c1ccc(F)cc1
[8] Cc1noc(C(C)SCCN2C(=O)NC(C)(C)C2=O)n1 (stereo not given)
assay / compound,1,2,3,4,5,6,7,8
NPYLR7 agonist,2,4,-6,7&-4,-4,1,12,-2
NPYLR7 agonist max-min,0,2,-6,0&-8,-10,-1,19,-5

Entries above with a carbonyl joined to an NH by a bond outside any ring, in the order listed:
[2] CC1CCCN(C(=O)C2CCN(C(=O)Nc3nnc(C(C)C)s3)CC2)C1 (stereo not given)
[3] COc1ccc(Cc2nnc(SCC(=O)Nc3cc(C)cc(C)c3)[nH]c2=O)cc1
[5] CCOc1ccc(C(=O)Nc2ccc(-c3nc4ccccc4o3)cc2)cc1Cl
[6] CC(=O)c1ccc(NC(=O)c2ccc(N3C(=O)C4C5C=CC(C5)C4C3=O)cc2)cc1 (stereo not given)
assay / compound,2,3,5,6
NPYLR7 agonist,4,-6,-4,1
NPYLR7 agonist max-min,2,-6,-10,-1

Remaining list, next part
[9] O=C(NC(Cc1ccccc1)C(=O)N1CCC(C(O)(c2ccccc2)c2ccccc2)CC1)OCc1ccccc1 (stereo not given)
[10] CCCCCCCC(=O)N1CCCC(C(=O)NC2CCCC[C@H]2NC(=O)c2ccccc2C)C1 (stereo not given in full)
[11] Cn1c(C(C#N)=Cc2c(F)c(F)c(F)c(F)c2F)nc2ccccc21
[12] CNCC(=O)NC(c1cccnc1)c1ccc(C)cc1C (stereo not given)
[13] O=C(c1ccc(CN2CCc3ccccc3C2)cc1)N1CCC(O)(CO)CC1
[14] Cn1c(Cl)cnc1C1CC(c2cc(Cl)ccc2O)=NN1 (stereo not given)
[15] Cc1ccc(OCCC(=O)Nc2nc(C)cs2)cc1
[16] CCc1nc2c(OCC=C(C)C)cccn2c1N(C)C(=O)c1ccc(OC)cc1
assay / compound,9,10,11,12,13,14,15,16
NPYLR7 agonist,-7,-1,142*,-3,-2,4,0,25
NPYLR7 agonist max-min,-13,3,138*,34,-4,-1,4,23

[17] Cc1c(C(=O)NCc2ccc(C#N)cc2)sc(=O)n1Cc1cccc(F)c1
[18] O=C(NS(=O)(=O)c1ccc(Cl)cc1)N1CCCn2cncc2C1
[19] O=C(NCCNC(=O)C1CCN(C(=O)c2ccc(C(F)(F)F)cc2)CC1)c1ccccc1
[20] COc1ccccc1NC(=O)CSc1nc(=O)n2ccccc2n1
[21] Cc1ccccc1C(=NCCCN(C)C)c1ccccc1C
[22] COc1ccccc1C1=NN(C(=O)CN2CCN(C)CC2)C(c2cc(C)ccc2C)C1 (stereo not given)
[23] Cc1cc(C)nc(NS(=O)(=O)c2ccc(F)cc2)n1
[24] CN1C(=O)C(=Cc2cc3c(cc2Cl)OCO3)C(=O)N(C)C1=O
assay / compound,17,18,19,20,21,22,23,24
NPYLR7 agonist,17,-1,3,-1,6,0,11,5
NPYLR7 agonist max-min,14,-7,10,-4,11,6,2,2

[25] Cc1nc(Nc2ccc(NC(=O)c3cccc(Cl)c3)cc2)cc(-n2ccnc2)n1
[26] C=CCN(Cc1cccnc1)Cc1ccc(O)c(C)c1
[27] CCN(CC)c1ccc(CN(Cc2ccco2)C(=O)c2ccco2)c(OS(C)(=O)=O)c1
[28] COc1csc(C(=O)OC(c2cnn(C)c2)C(F)(F)F)c1 (stereo not given)
[29] COc1ncccc1-c1cncc(C(=O)N2CCCCC2)n1
[30] CCC(NC(=O)c1ccncc1)c1ccccc1OC (stereo not given)
[31] C=CCNC(=O)COc1cccc2ccccc12
[32] Cc1cccc(CN2CCN(C(=O)CC3=CCNCC3)C(C)C2=O)c1 (stereo not given)
assay / compound,25,26,27,28,29,30,31,32
NPYLR7 agonist,-13,-5,-12,1,9,-1,-1,0
NPYLR7 agonist max-min,-19,-6,-6,9,5,-2,-5,-2

Brought forward from above: three entries, then new ones.
[30] CCC(NC(=O)c1ccncc1)c1ccccc1OC (stereo not given)
[31] C=CCNC(=O)COc1cccc2ccccc12
[32] Cc1cccc(CN2CCN(C(=O)CC3=CCNCC3)C(C)C2=O)c1 (stereo not given)
[33] CCCCc1ccc(C(=O)N(CCCOC)Cc2c(C)nn(-c3cccc(F)c3)c2N2CCN(C)CC2)cc1
[34] Fc1ccc(Oc2ncccn2)c(Cl)c1
[35] COc1ccc(-n2c(C)c(C)c(C#N)c2NC(=O)CN(C)CC(=O)N(C)C)cc1
[36] COc1cc(-c2ccnc(N3CCN(S(=O)(=O)c4ccc(F)cc4Cl)CC3)n2)cc(OC)c1OC
[37] COc1ccc(C(=O)N2CCC2(C)C(=O)NC(C)C)c(OC)c1 (stereo not given)
[38] Cc1cc(N2CCN(C/C=C/c3ccccc3)CC2)nc(SCc2ccc(C(=O)NCc3ccncc3)cc2)n1
[39] NC(=O)Nn1c(CCC(=O)O)ccc1-c1ccc(Br)cc1
[40] COc1cc(OC)nc(C(NC(=O)C2CCN(CCOc3ccc(Cl)cc3)CC2)c2ccc(F)cc2)n1 (stereo not given)
assay / compound,30,31,32,33,34,35,36,37,38,39,40
NPYLR7 agonist,-1,-1,0,3,-3,-3,-5,-3,12,-1,6
NPYLR7 agonist max-min,-2,-5,-2,12,-4,-5,-2,-5,15,-13,6

Full records, looked up by structure. Order of values: NPYLR7 agonist, NPYLR7 agonist max-min
Entry for NC(=O)Nn1c(CCC(=O)O)ccc1-c1ccc(Br)cc1 : -1, -13
Entry for Cc1cc(N2CCN(C/C=C/c3ccccc3)CC2)nc(SCc2ccc(C(=O)NCc3ccncc3)cc2)n1 : 12, 15
Entry for CCCCc1ccc(C(=O)N(CCCOC)Cc2c(C)nn(-c3cccc(F)c3)c2N2CCN(C)CC2)cc1 : 3, 12
Entry for COc1cc(-c2ccnc(N3CCN(S(=O)(=O)c4ccc(F)cc4Cl)CC3)n2)cc(OC)c1OC : -5, -2
Entry for COc1ccc(-n2c(C)c(C)c(C#N)c2NC(=O)CN(C)CC(=O)N(C)C)cc1 : -3, -5

The listing continues:
[41] CCN(CC)C(=O)C(=O)N1CCc2nc(N(C)C)[nH]c(=O)c2CC1
[42] CCCNC(=O)c1cc(C2CCCCN2C(=O)OCCF)on1 (stereo not given)
[43] CC(=O)c1ccc(NC(=O)CN(C(=O)N2CCN(C)CC2)S(=O)(=O)c2ccc(C)cc2)cc1
[44] Cc1c(C(=O)N2CC(C)OC(C)C2)cc(-c2ccc(Cl)cc2)n1-c1ccccc1 (stereo not given)
[45] Cc1ccccc1CC1(CO)CCCN(C(=O)Cc2c(F)ccc(F)c2F)C1 (stereo not given)
[46] CCOCCCN(CC(=O)N(Cc1cccn1Cc1ccccc1Cl)CC(C)C)S(=O)(=O)c1ccc(Br)cc1
[47] O=P(CCC(F)(F)F)(CCC(F)(F)F)CCC(F)(F)F
[48] O=C(c1c[nH]n2ccnc12)N1CC[C@@H](c2ccc3ccccc3c2)[C@H](O)C1
assay / compound,41,42,43,44,45,46,47,48
NPYLR7 agonist,-1,4,0,7,8,5,-13,-2
NPYLR7 agonist max-min,-2,1,-1,18,16,17,-15,-2

Down the list, quoted from above.
Compounds 29–38 in NPYLR7 agonist, in turn: 9, -1, -1, 0, 3, -3, -3, -5, -3, 12
Compounds 29–38 in NPYLR7 agonist max-min, in turn: 5, -2, -5, -2, 12, -4, -5, -2, -5, 15

Next part.
Each structure is followed by: NPYLR7 agonist	NPYLR7 agonist max-min
49. O=C(Cc1csc(NC(=O)c2ccc[nH]c2=O)n1)Nc1ccc(OC(F)(F)F)cc1
    2	6
50. O=C(NCCN=C1NS(=O)(=O)c2ccccc21)c1cccc2ccccc12
    -1	1
51. CCc1ccccc1-c1ccc2cc[nH]c(=O)c2c1
    3	2
52. CCOC(=O)Nc1ccc2c(c1)C(=O)Nc1ccccc1O2
    7	4
53. COCCN(Cc1cccc(F)c1)Cc1ccc(C(C)(C)O)o1
    -4	18
54. CCCCOc1c(I)cc(CNCCN(C)C)cc1OCC
    -5	-7
55. Cc1ccccc1-c1csc(NC(=O)C2CNC(=O)N2)n1 (stereo not given)
    -1	-8
56. CCOC(=O)CSc1nc(-c2ccc(C)cc2C)cc(-c2ccccc2)c1C#N
    -2	-5
57. CC(C)CNC(=O)c1cc(NC(=O)Nc2ccc(Cl)c(Cl)c2)ccc1N(C)C
    -8	-15
58. COc1ccc(COCC(O)CN(C)C(C)c2ccccc2)cc1 (stereo not given)
    -1	-4
59. Cc1cc(C(=O)N2CCOC(COCc3ccc(F)cc3Cl)C2)co1 (stereo not given)
    20	30
60. CN(C)CCn1c(C#N)cc2ccccc21
    21	12
61. CN(C(=O)Nc1cccnc1N1CCCCC1)C1CCN(C2CC2)C1 (stereo not given)
    5	2
62. Cc1cccnc1CC(C)NC(=O)Cn1c(=O)cc(C)c2ccccc21 (stereo not given)
    -10	-11
63. O=C(Oc1c(-c2ccccc2)c(=O)n2c3c(cccc13)CC2)c1ccco1
    -5	4
64. Cc1cc(N2CCCC2)c(F)cc1/C=C\[N+](=O)[O-]
    9	12
65. CC(=O)OC(C(=O)N1CCC(c2nc(-c3ccc(C(F)(F)F)cc3)no2)CC1)c1ccccc1 (stereo not given)
    4	-2
66. CN(C)C(=O)CCCS(=O)(=O)c1nnc(-c2cccs2)n1C1CC1
    3	2
67. O=C(CC1CNCCO1)NCc1cnn2ccccc12 (stereo not given)
    5	8
68. CCOC(=O)C1CCCN(C(=O)c2ccc(CSc3nc(Cl)cc(N(C)Cc4ccccc4)n3)cc2)C1 (stereo not given)
    12	10
69. Fc1ccc(C2CCCCN2Cc2nc(CC3CC3)no2)cc1 (stereo not given)
    -2	-3
70. Cn1c(Cn2c(=O)sc3ccccc32)nnc1SCc1ccccn1
    10	9
71. O=[N+]([O-])c1cccc(NN=C2c3ccccc3-c3ccccc32)c1
    -6	-2
72. Cc1ccc(CC2(NC(=O)C3CNCCO3)CC2)cc1 (stereo not given)
    -11	-15
73. OC1CC(c2cc(F)ccc2F)N(CCOc2ccc(F)cc2)C1 (stereo not given)
    -1	1
74. Cc1cc2nc(C)c(CCC(=O)NC3CCCCC3C)c(C)n2n1 (stereo not given)
    0	-1
75. O=C(c1nnc2n1CCN(Cc1cc3ccccc3o1)C2)N1CCOCC1
    9	1
76. Cc1cnc(C(=O)N(C)C(C)C(C)(C)C)cn1 (stereo not given)
    16	6
77. CN(C)CCCOc1ccc(-c2nnc3ccc(-c4cccc(C(=O)NCCO)c4)cn23)cc1
    11	1
78. Cn1nc([N+](=O)[O-])nc1Oc1ccc(Br)cc1
    -1	-3

(list continues)
Each structure is followed by: NPYLR7 agonist	NPYLR7 agonist max-min
79. O=C(Cc1ccc(F)cc1)Nc1cccc(C2SCC(=O)N2c2ccc(C(F)(F)F)cc2)c1 (stereo not given)
    5	21
80. Cc1ccc(C)c(S(=O)(=O)CCN2CCN(Cc3ccccc3F)CC2)c1
    3	2
81. CN(CC(=O)N1CC(C)(C)C1c1ccccc1)S(=O)(=O)c1ccc(Br)cc1 (stereo not given)
    5	0
82. CCc1cnc2c(c1N1CCC(Cc3ccccc3)CC1)c(=O)n(C)c(=O)n2C
    6	0
83. COC(=O)C1=C(C)N(C)C(=O)NC1c1ccc2c(c1)OCO2 (stereo not given)
    -8	-12
84. CC(=NCc1ccccc1)c1c(O)[nH]c(=O)[nH]c1=O
    -4	-8
85. COCCCN1C(=O)c2ccc(C(=O)Nc3nc(-c4ccccc4)cs3)cc2C1=O
    -10	-11
86. N#CC1C(=N)Oc2n[nH]c(-c3ccccc3)c2C1c1ccc(O)cc1 (stereo not given)
    -2	-7
87. Cc1cccnc1C(=O)N1CC[C@H](O)C[C@@H]1C(=O)O
    -3	-3
88. Cc1noc(C(C)OC(=O)C2CC(=O)N(Cc3ccccc3)C2)n1 (stereo not given)
    12	9
89. CCOC(=O)N1CCN(C(=O)c2cc(-c3cccc(OC)c3)nc3cc(C(C)(C)C)nn23)CC1
    -11	-9
90. Cc1ccc(Nc2nc(NCCO)nc3c2cnn3-c2ccccc2)cc1C
    2	0
91. O=c1c2c3c(sc2[nH]c(=S)n1CC1CCCO1)CCCC3 (stereo not given)
    -1	-2
92. O=C(CNc1ccc2ccccc2c1)N/N=C\c1cc2ccccc2nc1Cl
    13	13
93. O=C(c1ccnc(NC2CC2)c1)N1CCCC1Cc1ccccc1 (stereo not given)
    8	8
94. COc1nc2ccccc2cc1C1CC(=O)Nc2n[nH]c(C3CCC3)c21 (stereo not given)
    14	5
95. O=C1NC2(CCCC2)C(=O)N1CN1CCN(S(=O)(=O)c2cccc(C(F)(F)F)c2)CC1
    8	12
96. CCn1c(-c2cccc(Cl)c2)n[nH]c1=S
    -6	-13

A portion of the library, so the mix of outcomes need not match the whole.
